Screens as filed in PubChem.
Biofilm kill mix = clotrimazole potentiators killing C. albicans biofilm, primary screen, 4-compound mixtures; C. albicans biofilm persisters + clotrimazole, fluorescence viability; primary screen in compound mixtures of four per well; inhibition, % at 7.6 µM; actives 0.02% (n = 120,000);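 active = inhibition above 30.3% in the primary screen of four-compound pools, then above 30% when the compound was retested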;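 note: compounds exposed to preformed 24 h biofilms for 48 h; the number belongs to the whole pool; some results filed as inactive read as strong as hits; inactives centre near 12; 0% = biofilm with clotrimazole alone and 100% = kill control; retested singly at about 60 µM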
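Probe or stimulus – Clotrimazole 50 µg/mL co-treatment · System – C. albicans biofilms · Schedule – 24 h biofilm formation, then 48 h compound exposure, 37 °C · Evaluation – percent inhibition of biofilm viability · Technique – 2-h Alamar Blue fluorescence, 535/590 nm excitation/emission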
The depositor's hits bear a star.

mol	Biofilm kill mix
O=C(COC(=O)CNS(=O)(=O)c1cccc(Br)c1)NC(=O)Nc1ccc2c(c1)OCCO2	13.3
COc1ccc(NS(=O)(=O)c2ccc(Cl)s2)cn1	11.1
CC(=O)c1c(C)oc2c1cc(O)c1ccccc12	11.8
Cc1ccc(C2C3C(=O)N(c4ccc(C)cc4)C(=O)C3N3CCCN23)cc1 (stereo not given)	7.5
C=CCOC(=O)C1=C[C@H](c2ccccc2)[C@@H](CCCO)[C@H](OCC)O1	14.9
CC(C)Sc1nc(-c2cccs2)nc2c1c(=O)n(C)c(=O)n2C	17.6
O=c1[nH]c2ccccc2n1C1=CCNCC1	21.2
CC(=O)NCC(=O)OCC(=O)N1c2ccccc2Sc2ccccc21	9.5
CCOCC(O)CNc1ccccc1 (stereo not given)	16.0
CCN(C(=O)COC(=O)c1cc(-c2ccccc2)nn1-c1ccccc1)C1CCS(=O)(=O)C1 (stereo not given)	-1.6
C[C@@]12CCC=C[C@H]1[C@H](c1ccc3ccccc3c1/C=C/c1ccccc1)N(Cc1ccccc1)C2=O	9.4
O=C(NC1CCCC1)C(c1ccncc1)N(Cc1ccco1)C(=O)c1ccc(-c2ccccc2)[nH]1 (stereo not given)	15.6
CC(=O)NC(CC(=O)Nc1nc(C)cs1)c1ccccc1 (stereo not given)	15.1
CCNC(=O)COc1ccc(C=O)cc1OC	10.5
CNC(=S)N/N=C/c1ccc(-c2cc([N+](=O)[O-])ccc2Cl)o1	-2.2

Following part
mol	Biofilm kill mix
COc1cc(/C=C/C(=O)O)cc(S(=O)(=O)Nc2ccccc2Oc2ccccc2)c1OC	14.8
COc1ccccc1C(=O)N/C(=C\c1ccc(Br)cc1)C(=O)N1CCCC1	13.4
CC1(c2nnc(-c3ccccc3)o2)CC(c2ccncc2)=NO1 (stereo not given)	15.6
CCOc1ccc(CSC(=N)N)cc1Cl	18.6
O=C(O)CN1C(c2ccccc2O)Nc2ccc(Br)cc2C1c1ccccc1 (stereo not given)	6.0
COc1ccc(C(=O)Nc2cccc(-c3cc4ccccc4oc3=O)c2)cc1[N+](=O)[O-]	20.1
O=C(NC(=O)N1CCN(c2ccccc2)CC1)c1ccc(Cl)cc1	22.1
Cc1nonc1C(=O)N/N=C/c1ccccc1	-13.5
C/C=C\C=C\C(=O)N1CC2(CC(c3cccc(NC(=O)/C(C)=C\C)c3)=NO2)C[C@H]1C(N)=O (stereo not given in full)	-1.0
Cc1ccc(S(=O)(=O)NCC(=O)OCC(=O)Nc2cccc(S(=O)(=O)NC3=NCCCCC3)c2)cc1	0.6
Cc1cccc(-c2nc3ccccc3c(=O)n2NC(=O)c2ccc([N+](=O)[O-])c(C)c2)c1	20.2
Cc1ccc(S(=O)(=O)N(C)c2c(C)ccc(S(=O)(=O)N3CCN(C)CC3)c2C)cc1	15.3
O=C(O/N=C(\c1ccccc1)c1ccncc1)c1ccccc1Cl	6.0
CCN(CC)S(=O)(=O)c1ccc(OC(C)C)c(N)c1	9.2
Cc1cc(C)cc(NC(=O)CN(c2ccc(F)cc2)S(C)(=O)=O)c1	22.2

Other structures follow:
mol	Biofilm kill mix
Cc1c(NC(=O)Cn2cc([N+](=O)[O-])cn2)c(=O)n(-c2ccccc2)n1C	-10.0
O=C(COC(=O)CCc1ccc(S(=O)(=O)N2CCOCC2)cc1)NC1CCCC1	8.6
COc1ccc(CC2(C)OC(c3ccc(C)cc3)=NN2C(C)=O)cc1 (stereo not given)	10.8
Cn1c(=O)c(C(=O)COC(=O)c2cc(C3CC3)nc3ccccc23)c(N)n(Cc2ccccc2)c1=O	5.9
CN(Cc1nc(Cc2ccccc2F)no1)CC1(N2CCOCC2)CCCCC1	11.6
C/C(=N/NC(=O)CNC(=O)C1COc2ccccc2O1)c1ccc2c(c1)OCCO2 (stereo not given)	21.3
O=C(CSc1nccc(=O)[nH]1)c1cc2ccccc2o1	21.3
C=CCSc1nc2[nH]ncc2c(=O)[nH]1	6.3
Cc1nnc(Nc2ccc(C(=O)O)cc2)[nH]c1=O	2.3
CC(C)(C)NCC(O)c1cc(O)cc(O)c1 (stereo not given)	7.4
CN(C)/C=N/S(=O)(=O)c1ccc(Cl)cc1	4.3
O=C(/C=C/c1ccc(Cl)cc1)N1CCN(c2c(Cl)cccc2[N+](=O)[O-])CC1	13.5
CCCC(C)C(=O)Nc1cc([N+](=O)[O-])ccc1Cl (stereo not given)	8.9
COc1ccc(NC(=O)CC2C(=O)NCCN2C(=O)c2ccccc2)cc1 (stereo not given)	38.2
Nc1cnn(Cc2ccc(F)cc2)c1	7.3

The listing continues:
mol	Biofilm kill mix
CCc1ccc(OCC(=O)Nc2ncn[nH]2)cc1	7.5
CCCc1cc(=O)[nH]c(SCC(=O)Nc2ccc([N+](=O)[O-])cc2C#N)n1	13.8
O=C(O)Cn1nnc2ccccc21	20.5
O=S(=O)(c1ccc(Cl)cc1)N1CCC(n2cccc2)CC1	19.6
CC(C)CNC(=S)N1CCC(c2nc(-c3ccc(F)cc3)no2)CC1	6.2
CCOC(=O)C1(CCCc2ccccc2)CCN(C(=O)c2cncs2)CC1	10.6
COc1ccc(/C=N/N=C/c2c[nH]c(=O)c(C#N)c2Nc2ccccc2)cc1	13.9
COc1ccc(Cl)cc1NC(=O)c1cc(-c2cc(C)ccc2O)n[nH]1	14.9
CN(c1ccccc1)S(=O)(=O)c1ccc(Cl)c(C(=O)OCC(N)=O)c1	9.9
CC(C)(C)CC(C)(C)NCC(=O)Nc1c2c(nc3ccccc13)CCC2	13.5
CC1(C)Cc2cccc(C(=O)NCc3ccco3)c2O1	33.6
COc1cccc(C2CC(c3c(F)cccc3Cl)n3nc(N)nc3N2)c1 (stereo not given)	9.6
CC(Oc1ccc(Cl)cc1)c1ccn[nH]1 (stereo not given)	12.0
O=C(Nc1cccc(F)c1)c1ccc(Br)o1	5.3
O=C(c1ccccc1NS(=O)(=O)c1ccc2c(c1)OCCO2)N1CCOCC1	-8.6

Remaining list, next part:
mol	Biofilm kill mix
Cc1cc([N+](=O)[O-])ccc1NC(=O)CSc1nccc(=O)[nH]1	16.1
CCCCCCCCS(=O)c1sc2nc3c(cc2c1N)CCCC3 (stereo not given)	14.9
CC(C)(C)C1CCC(=NNC(=O)c2ccc(Br)o2)CC1 (stereo not given)	10.8
Cn1c(SCC(=O)c2ccc(F)cc2)nnc1-c1cccnc1	5.8
CC(=O)N1N=C(c2ccncc2)OC12CCCCCC2	14.9
CN1CCC(OC(c2ccccc2)c2ccccc2)CC1	-6.5
CNC(=O)c1cc2c(s1)-c1ccccc1CC2	15.8
CCCCCCn1nc(C(=O)OCC(=O)NC2CCS(=O)(=O)C2)c2ccccc2c1=O (stereo not given)	8.1
Cc1cccc(C)c1Nc1c(-c2ccccc2O)nc2ncccn12	15.0
O=C(Cn1cnc2ccccc2c1=O)Nc1cccc(S(=O)(=O)N2CCCCC2)c1	5.7
O=C(O)CCc1nn2c3ccccc3n(Cc3ccccc3F)c2nc1=O	15.7
COC(=O)c1cc(NC(=O)c2nn(C)c(=O)c3ccccc23)cc(C(=O)OC)c1	18.4
CCOc1ccc(CNC(=O)c2ccc(Sc3ccc(Cl)cc3)c(NC(C)=O)c2)cc1OC	11.9
OCCNc1nc(-c2ccccc2)c2cc(Cl)ccc2n1	13.3
O=[N+]([O-])c1ccc(S(=O)(=O)CC(CN2CCOCC2)N2CCOCC2)cc1 (stereo not given)	9.6

New compounds follow.
mol	Biofilm kill mix
C/C(=C/C(=O)Nc1cccc(F)c1)N1CCCC1	8.9
O=C(/C=C/c1ccccc1)Nc1cccnc1Oc1ccccc1F	16.8
COc1ccc(-c2[nH]c(-c3ccc(SC)cc3)nc2SCC(=O)Nc2nccs2)cc1	5.6
Cc1ccc(C(=O)OCC(=O)Nc2cccc(S(=O)(=O)NC3=NCCCCC3)c2)c(C)c1	10.4
Cn1c(SCC(=O)Nc2ccccc2)nc2c([nH]c3ccccc32)c1=O	16.7
Cc1cc(C)c(S(=O)(=O)N2CCCCCC2)cc1Br	9.1
COCCNC(=O)CC(=O)N/N=C/c1cccc(C(=O)OC)c1	13.7
Cc1nc2ccccc2c(=O)n1NC(=O)c1cc(Br)ccc1Cl	13.3
CN(CCc1ccccn1)C(=O)CCC1CCCN(C(=O)c2cscn2)C1 (stereo not given)	19.8
Cc1ccc(-n2c(C)cc(C(=O)CN3C(=O)C(=O)N(C4CCCC4)C3=O)c2C)cc1	8.7
O=C(O)c1cccc(-n2cccc2C=C2C(=O)c3ccccc3C2=O)c1	3.3
COC(=O)[C@@H](NC(=O)NC1CCCCC1C)C(C)C (stereo not given in full)	9.9
CCC(C)n1c(SCc2ccccc2)nc2ccsc2c1=O (stereo not given)	16.8
O=C(Nc1ccc2[nH]c(=O)[nH]c2c1)Nc1ccc(F)cc1F	13.5
COc1ccc(C(=O)NNC(=O)c2ccc(C(C)(C)C)cc2)cc1	7.7

Additional compounds:
mol	Biofilm kill mix
COc1cc(OC)c(OC)cc1CN1CCN(S(=O)(=O)c2ccc(NC(C)=O)cc2)CC1	24.5
CCOC(=O)c1cc(C(=O)c2cc(Cl)ccc2O)coc1=N	15.1
Cc1nc(CNC(=O)CC2C(=O)NCCN2Cc2ccoc2)nc2c1CCCC2 (stereo not given)	23.8
COc1ccccc1C(CC(=O)c1ccccc1)CC(=O)c1ccccc1	-8.7
Cc1oc(-c2cccc(C(F)(F)F)c2)nc1CN1CCC[C@H]1CO	23.7
CCN1CCN(C(=O)CN(C)S(=O)(=O)c2ccc3ccccc3c2)CC1	27.1
COc1ccc(OC)c(/C=C/C(=O)N(C)CC(=O)Nc2cc(C)ccc2C)c1	18.4
CC(=O)Nc1ccc(CNC(=O)C[N+]2(C)CCOCC2)cc1	22.8
CS(=O)(=O)N1CCN(c2ccc([N+](=O)[O-])c(NCc3ccc(Cl)cc3)c2)CC1	21.0
COCCNc1nc2c(S(=O)(=O)c3cc(C)ccc3C)nnn2c2ccccc12	6.6
Cc1ccc(C)c(NC(=O)Cn2cnc3c(oc4ccccc43)c2=O)c1	12.8
COc1ccc(N=C2NC(=O)CS2)c([N+](=O)[O-])c1	8.8
CC(=O)Nc1ccc(NC(=O)C(C)n2nc(C)c([N+](=O)[O-])c2C)cc1 (stereo not given)	6.7
CCN(c1ccc(OCC(=O)OCC(=O)Nc2ccc(F)c(F)c2F)cc1)S(=O)(=O)c1ccccc1	5.5
Cc1[nH]c2ccccc2c1/C=N/NC(=O)CCC(=O)Nc1ccccc1	52.8

Going on with the list:
mol	Biofilm kill mix
Cc1ccc(NC(=O)c2c(C)nc3sc(C(=O)NC4CCCC4)c(N)c3c2-c2ccco2)c(C)c1	-1.1
CCN(CC)CCCNC(=O)c1ccc(N2CCCCC2)c(NS(=O)(=O)c2ccc(C)cc2)c1	-2.1
Cc1cc(N2CCOCC2)n2cc(-c3ccccc3)nc2n1	-8.1
CCn1c(CNC(=O)c2ccc(OC)c(OC)c2)nnc1SCC(=O)Nc1ccccc1	12.8
Cc1cc(C)cc(N(CC(=O)NC2CCCC2)S(=O)(=O)c2c(C)[nH]c(=O)[nH]c2=O)c1	20.8
Cn1nc(C(=O)OCC(=O)NC2CCS(=O)(=O)C2)c2ccccc2c1=O (stereo not given)	6.8
c1ccc(-c2csc3ncnc(NCc4ccccn4)c23)cc1	22.4
O=C(/C=C/c1ccccc1Cl)Nc1ccc(S(=O)(=O)Nc2ncccn2)cc1	18.2
O=C(Nc1ccccc1Cl)N1CCN(Cc2ccc3c(c2)OCO3)CC1	20.6
COc1cccc(NC(=S)N(Cc2ccc(Cl)cc2)Cc2ccc(C(=O)O)cc2)c1	10.6
COC(=O)c1sc2ccc(C)cc2c1C(=O)OC	9.6
CC1(C)Cc2cccc(Oc3ccc(S(=O)(=O)N4CCCC4)cn3)c2O1	8.7
Cc1ccccc1NC(=S)N(Cc1cccnc1)Cc1ccco1	9.7
O=C(NC(=S)N1CCc2ccccc21)c1ccccc1	16.5
CCCCc1nc(SCCOC)c2c(=O)n(C)c(=O)n(C)c2n1	3.7

(listing goes on)
mol	Biofilm kill mix
O=S(=O)(c1ccc2oc3ccccc3c2c1)N1CCCC1	14.0
C=CCSc1nc2ccsc2c(=O)n1-c1ccccc1	7.6
CC(=O)Nc1cc(C(=O)N2CCc3ccccc3C2)ccc1Sc1ccc(Cl)cc1	19.9
Cc1c(N)cccc1-c1nc2ccccc2[nH]1	-4.7
O=C(Cc1cccs1)NCCSc1c(-c2ccc(Cl)cc2)[nH]c2ccccc12	-3.0
CCC/C=C(\CCC)C(NC(=O)Cc1ccccc1)c1ccc(C(=O)OC)cc1 (stereo not given)	7.2
O=C(CSc1ccccc1C(=O)O)NC1CCCCCC1	6.6
Cc1ccc(SCCNC(=S)Nc2ccc(C)cc2C)cc1	12.6
COC(=O)c1cn(C(=O)c2cc(C)cc(C)c2)c2ccccc12	22.1

A draw from above in order of molecular weight, falling:
mol	Biofilm kill mix
O=C(COC(=O)CNS(=O)(=O)c1cccc(Br)c1)NC(=O)Nc1ccc2c(c1)OCCO2	13.3
COc1cc(OC)c(OC)cc1CN1CCN(S(=O)(=O)c2ccc(NC(C)=O)cc2)CC1	24.5
O=C(c1ccccc1NS(=O)(=O)c1ccc2c(c1)OCCO2)N1CCOCC1	-8.6
CN(CCc1ccccn1)C(=O)CCC1CCCN(C(=O)c2cscn2)C1 (stereo not given)	19.8
O=C(/C=C/c1ccccc1)Nc1cccnc1Oc1ccccc1F	16.8
COc1ccc(NS(=O)(=O)c2ccc(Cl)s2)cn1	11.1

Only part of the results is shown, so the mix of outcomes need not match the whole.
